# A647 autofl: compound fluoresces in the A647 spectral region; AID 592; Compound fluorescence, A647 channel (570/671 nm), Tris buffer; 59,000 tested, under 10 active; max dye-equivalent concentration, M; active means above 1 µM dye equivalent; inconclusive means 0.1 to 1 µM; inactive means 0.1 µM or less;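 note: values scaled relative to a standard on each plate; highest value over a series up to 38 µM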
#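 Buffer was dispensed, compounds and Alexa 647 standards were pin-transferred, and plates sat 15 min at room temperature. Intensity at 570/671 nm was then converted to dye-equivalent concentration using the plate's A647 standard curve.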
# A488 autofl: compound fluoresces in the A488 spectral region. compound autofluorescence, A488 spectral region, dye equivalency; hits give high values. max dye equivalency, M. 59,000 tested, 0.1% active. AID 591; active = above 10 nM dye equivalent; inconclusive = 1 to 10 nM; inactive = 1 nM or less; about half of its hits are not listed in these tables;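 note: highest value over a series up to 38 µM; compound alone in buffer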
#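 Read-out: relative fluorescence at 480/540 nm, expressed as Alexa 488 dye-equivalent concentration from a six-point A488 standard included per plate. Conditions: 100 mM Tris, pH 8.0; 15 min incubation, room temperature.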
# TSHR ag: TSH receptor (human) agonism | P16473 | HEK293-CNG-TSHR cells (CNG channel as cAMP sensor), membrane potential dye, cAMP | Potency, µM (series often up to 57.1 µM), without a hit: at the top dose activation, hits mostly activators | 73,000 tested, 0.48% active; active = well fitted activation curve of enough size with the parental cells flat; inconclusive = any curve in the parental cells; inactive = parental cells flat and receptor cells flat or falling; note: potency is the fitted concentration of half-maximal effect; % of control where 0% means no effect; weak receptor curves with flat parental cells got no call and are not listed
# Target sequence (P16473 whole entry, looked up): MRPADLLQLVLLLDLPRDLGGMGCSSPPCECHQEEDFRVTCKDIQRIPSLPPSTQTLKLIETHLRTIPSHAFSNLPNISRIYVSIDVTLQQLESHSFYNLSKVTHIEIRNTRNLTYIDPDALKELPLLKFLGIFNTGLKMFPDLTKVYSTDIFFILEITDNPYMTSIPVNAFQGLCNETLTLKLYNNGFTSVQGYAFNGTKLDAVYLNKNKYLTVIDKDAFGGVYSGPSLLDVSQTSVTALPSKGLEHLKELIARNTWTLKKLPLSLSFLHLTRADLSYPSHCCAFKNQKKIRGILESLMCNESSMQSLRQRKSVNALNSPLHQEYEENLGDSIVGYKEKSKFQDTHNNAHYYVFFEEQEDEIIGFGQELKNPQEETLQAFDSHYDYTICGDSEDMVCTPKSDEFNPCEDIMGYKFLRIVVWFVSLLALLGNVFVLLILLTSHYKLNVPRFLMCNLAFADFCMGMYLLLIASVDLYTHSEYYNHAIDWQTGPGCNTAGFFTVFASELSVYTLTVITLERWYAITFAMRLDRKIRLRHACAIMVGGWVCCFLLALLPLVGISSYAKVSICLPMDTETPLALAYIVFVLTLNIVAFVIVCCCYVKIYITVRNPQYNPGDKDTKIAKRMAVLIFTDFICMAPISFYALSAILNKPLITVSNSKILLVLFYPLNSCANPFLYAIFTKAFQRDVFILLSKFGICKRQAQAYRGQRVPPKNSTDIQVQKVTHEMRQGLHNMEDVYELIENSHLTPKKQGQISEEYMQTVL
#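 cAMP rise detected as CNG-channel membrane depolarization by fluorescent dye (emission 590 nm), 30 min after compound, following 60 min dye loading containing 100 uM RO 20-1724 at room temperature. Cells: TSHR/CNG HEK 293, with parental CNG HEK 293 as control.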
# Resorufin fluor: compound fluoresces in the resorufin spectral region. 59,000 tested, 0.04% active. max dye-equivalent concentration, M. AID 588. Compound fluorescence, resorufin region 547/598 nm, buffer; hits give high values; active = above 10 nM dye equivalent; inconclusive = 1 to 10 nM; inactive = 1 nM or less; a few of its hits are not listed in these tables; note: highest value over a series up to 38 µM
#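 Compounds in 100 mM Tris, pH 8.0, incubated 15 min at room temperature, then fluorescence read at 547 nm excitation/598 nm emission. Signal converted to dye-equivalent concentration via an on-plate six-point resorufin standard curve, per compound concentration.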
# AID923: qHTS Assay for Allosteric/Competitive Inhibitors of Caspase-1: Spectroscopic Profiling in AFC Spectral Region | compound fluorescence, AFC spectral region (405/520 nm); almost no hit is shown here | Potency, µM (highest dose often 57.5 µM), without a hit: at the top dose fluorescence increase, actives largely listed as activators | 75,000 tested, 1.1% active; active = well fitted activation curve with a large enough effect; inconclusive = small, poorly fitted or top-dose-only effect;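 note: potency is the fitted concentration of half-maximal effect; 0% is about no effect; scaled to a free AFC standard on each plate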
#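 Compound autofluorescence profiled at 405 nm ex/520 nm em during kinetic caspase 1 run (50 nM enzyme, 5 uM Ac-WEHD-AFC, HEPES pH 7.5, 10 mM DTT). Titration up to 57 uM; baseline from regression intercept, normalized to AFC standard curve.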
# * hit, by the source's call; i = inactive; ? = inconclusive; · = no result given; [ ] = dose if it differs, or a comment. Not all compounds are listed (hit frequency here may not be typical).
SMILES,A647 autofl,A488 autofl,TSHR ag,Resorufin fluor,AID923
CCOc1ccccc1NC(=O)CCN1CCN(S(=O)(=O)c2ccc(OC)cc2)CC1,3.1e-08,i,3%,i,0.8%
CC1(C)CCC(NC(=O)[C@H](N)CCC(=O)O)CC1,1e-09,i,8%,i,-1.4%
CCOC(=O)N1CCC(NC(=O)c2ccc(CS(=O)(=O)c3ccccc3C)o2)CC1,·,·,-1%,·,0.4%
CC(C)Cc1nc(S(=O)(=O)c2ccc(Cl)cc2)c(N2CCOCC2)o1,1.8e-08,i,-7%,i,0.6%
CC(C)OCCCNc1ncnc2c1[nH]c1ccc(F)cc12,1e-09,i,?,i,-1.4%
COc1ccc(C2N(c3ccccn3)C(=O)C3CCCN32)c(OC)c1 (stereo not drawn),1e-09,i,3%,i,-1.0%
CC(C)COC(=O)C1[C@H]2C(=O)N(Cc3cccs3)C[C@]23C=C[C@H]1O3 (stereo partly drawn),9.7e-09,i,-3%,i,-0.4%
Cc1ccc(CCNC(=O)Cn2cccc2)cc1,2.6e-08,i,-1%[11.4 µM],i,-0.7%
Cn1c(CCNC(=O)c2ccccc2)nc2cc(NC(=O)c3ccco3)ccc21,2.8e-08,i,-4%,i,-0.2%
Cc1ccc(NC(=O)CSC(N)=O)cc1Cl,·,·,-12%,·,-2.6%
CCn1cc(S(=O)(=O)CC(=O)Nc2cc(C)on2)c2ccccc21,1.3e-08,i,1%,i,0.2%
C=CC(O)Cc1c(C)n[nH]c1C (stereo not drawn),1.9e-09,i,·,i,·
O=C(CSc1ccccc1)NCCCN1CCOCC1,4.6e-08,i,-2%,i,0.5%
COCCn1c(=O)[nH]c2cc(C(=O)NCc3cccnc3)ccc2c1=O,1e-09,i,?,i,1.4%
CN1CCN(Cc2nc3c(c(=O)[nH]c(=O)n3C)n2CCc2ccccc2)CC1,·,·,7%,·,-2.4%
CCC(c1nnc(SCC(=O)N2CC(=O)Nc3ccccc32)n1Cc1ccccc1)N(C)C (stereo not drawn),2.7e-08,i,1%[11.4 µM],i,-0.3%
COc1ccc(-c2nc(=S)[nH][nH]2)cc1,·,·,-1%,·,3.3%
COc1ccc2[nH]cc(CCNc3ncnc4ccc(-c5ccccc5CN(C)C)cc34)c2c1,2.1e-08,i,-5%,i,-0.5%
Cc1cc(N2CCOCC2)nc2ccc(NC(=O)CCC(=O)N3CCCC(C)C3)cc12 (stereo not drawn),1e-09,i,4%,i,3.5%
CCc1cccc(CC)c1NC(=O)CN1CCN(c2ccccc2)CC1,1e-09,i,-2%[11.4 µM],i,-0.4%
COCCn1c(SCC(=O)N2CCCCC2)nc2cccnc21,1e-09,i,1%,i,0.7%
COc1cccc(Cn2c(=O)cnc3cncnc32)c1,9.2e-09,i,·,i,3.1%
CCNC(=O)Nn1c(C)nnc1C,4e-08,i,·,i,·
COc1ccc2[nH]cc(CCNc3ncnc4ccc(-c5ccccc5C#N)cc34)c2c1,4.6e-09,i,0%,i,1.0%
COc1ccc(Nc2ccccc2)c(C)c1,1e-09,i,-5%,i,0.8%
CC1(C)C(=O)Nc2ccccc2N1C(=O)COc1ccc(S(=O)(=O)N2CCOCC2)cc1Cl,4.4e-09,i,?,i,-1.3%
COc1ccc(C(c2sc3nc(C)nn3c2O)N2CC(C)OC(C)C2)cc1OC (stereo not drawn),·,·,-6%,·,4.0%
CCC(=O)N1c2ccc(S(=O)(=O)N(CCO)Cc3ccccc3)cc2CC1C (stereo not drawn),6.7e-09,i,24%,i,-1.4%
C#CCNc1c(C)c(C)nc2ncnn12,3.7e-09,i,?,i,0.5%
COc1cccc(C(=O)CN2C(=O)C(C)(C)Oc3ccc(C(=O)N4CCCCCC4)cc32)c1,3.5e-08,i,?,i,-0.7%
Clc1ccccc1OCc1nc(-c2ccccn2)no1,4.9e-09,i,?,i,-0.3%
C[N+](C)(C)CC(=O)N/N=C\c1ccncc1,1e-09,i,3%[11.4 µM],i,4.0%[11.5 µM]
CC(C)c1nnc(NC(=O)C2CCCCC2)s1,·,·,-2%,·,1.2%
COC(=O)c1ccc2c(=O)n(CCN3CCOCC3)c(SCC(=O)c3ccccc3)nc2c1,7.5e-09,i,2%,i,-2.6%
Cc1cccc(C)c1OCc1nnc(SCC(=O)NCc2ccccc2)o1,3.9e-09,i,84%,i,0.0%
CCOC(=O)N1CCC(NC(=O)c2cccc3c2C(=O)N(Cc2cccnc2)C3)CC1,1.4e-08,i,·,i,0.8%
O=C(O)CNC(=O)c1ccccc1O,1e-09,i,5%[11.4 µM],i,4.4%[11.5 µM]
CC1(C)CC(=O)N(CC(=O)N2CCN(c3ncccn3)CC2)c2ccccc2S1(=O)=O,·,·,5%,·,3.1%
c1ccc(-n2c(SCc3ccncc3)nnc2-c2ccco2)cc1,2.9e-09,i,6%,i,1.0%
Clc1cccc(Cl)c1Cn1nnc(-c2cccs2)n1,2.2e-09,i,14%,i,1.0%
N#Cc1ccc(CSc2nnc(Nc3ccccc3)s2)cc1,1e-09,i,?,i,-5.3%
CC(C)NC(=O)N1CCCC2(CCN(C(=O)c3cc(C(F)(F)F)cc(C(F)(F)F)c3)CC2)C1,1.5e-09,i,4%,i,3.4%
COc1ccc(CN2CCN(C(=O)C3CC(=O)N(C4CCCCCC4)C3)CC2)c(OC)c1OC (stereo not drawn),5.9e-09,i,?,i,-0.7%
CC1CCc2sc3nc(NCc4ccco4)n4ncnc4c3c2C1 (stereo not drawn),1.4e-08,i,10%,i,1.9%
CCOc1ccc(-c2cc3nc(C4CCN(C(=O)OC(C)(C)C)CC4)c(C(=O)O)cn3n2)cc1,7.3e-09,i,·,i,-4.2%
O=C(CSc1nnc(-c2ccc(OC(F)F)cc2)o1)N1CCOCC1,3.7e-08,i,4%,i,-1.2%
Cc1cc(C(=O)CSc2nnc(-c3ccncc3)n2-c2ccccc2)c(C)n1C,4.1e-08,i,1%,i,7.5%
N#Cc1nc(Cc2cccc3ccccc23)oc1N1CCOCC1,7.4e-09,i,?,i,-1.7%
Cc1cnc(CNc2ncncc2-c2ccc(C(=O)N(C)C)cc2)cn1,3.2e-09,i,-3%,i,-2.2%
C[C@@H](C(=O)N[C@@H](CO)Cc1ccccc1)[C@@H]1C[C@@]1(C)[C@@H](NC(=O)OCc1ccccc1)c1ccccc1,·,·,18%,·,-1.9%
COC(=O)C(CCCCN1C(=O)C2C3C=CC(C3)C2C1=O)N1C(=O)C2C3C=CC(C3)C2C1=O (stereo not drawn),3.7e-08,i,2%,i,-1.7%
COc1ccc2oc(=O)c(C(=O)N3CCCc4ccccc43)cc2c1,1e-09,i,4%,i,-0.2%
O=C(NCCCn1ccnc1)C(Cc1ccccc1)N1C(=O)c2ccccc2C1=O (stereo not drawn),2.1e-08,i,·,i,·
CC1=CC(=O)CC(C)(C)[C@]1(O)/C=C\C(C)=C\C(=O)O,1e-09,i,-5%[11.4 µM],i,0.2%[11.5 µM]
O=C(NCCCNCc1ccccc1)/C(=N\O)c1ccccc1,1e-09,i,·,i,·
CN(C)CCSc1nnc(-c2ccccc2)o1,1e-09,i,6%,i,-0.8%
O=C(O)C1CCCCC1C(=O)NCCCN1CCOCC1 (stereo not drawn),1e-09,i,0%,i,0.6%
O=S(=O)(c1ccc2c(c1)OCCO2)N1CCN(Cc2ccc3c(c2)OCO3)CC1,1e-09,i,10%,i,-0.1%
CCn1ncc(Br)c1C(=O)Nc1cc(C(=O)OC)ccc1C(=O)OC,1e-09,i,?,i,2.3%
Nn1c(Nc2ccccc2)nc2sc3c(c2c1=O)CCC3,·,·,-7%,·,0.3%

# More compounds.
SMILES,A647 autofl,A488 autofl,TSHR ag,Resorufin fluor,AID923
CSc1ccccc1NC(=O)c1cnccn1,4.2e-08,i,6%,i,-0.3%
Cc1cccnc1Nc1nc(-c2ccc(O)cc2O)cs1,1e-09,i,-11%,i,-0.1%
Cc1c(O)c(=O)ccn1Cc1ccccc1,·,·,7%[11.4 µM],·,-1.4%[11.5 µM]
CCOC(=O)c1c(NC(=O)CN2CCOCC2)sc2c1CCCC2,2.1e-09,i,·,i,-1.2%
CCN(CC)CCCNC(=O)c1ccccc1C,·,·,4%,·,2.6%
CCOC(=O)c1sc(NC(=O)c2ccco2)nc1C,·,·,2%,·,0.1%
O=C(Oc1ccc2cccc(OC(=O)N3CCOCC3)c2c1)N1CCOCC1,4.1e-08,i,20%,i,-1.4%
Cc1ccc(C)c(C2=CSC3=NCCN23)c1,8.1e-09,i,4%[11.4 µM],i,-0.4%
CCc1nnc(NC(=O)OCc2ccccc2)s1,2.9e-08,i,3%,i,-2.0%
COc1ccc(C)cc1NC(=O)CN(Cc1nnc(-c2ccc(Cl)cc2)o1)C1CCCC1,1e-09,i,?,i,2.7%
Cc1cccc(-n2nnnc2SCC(=O)c2cc(C)n(Cc3ccco3)c2C)c1,4e-08,i,6%[11.4 µM],i,2.3%
Cn1c(NC(=O)c2ccco2)c(-c2ccccc2)c(=O)c2ccccc21,1.4e-09,i,4%,i,1.2%
CCOC(=O)c1c(-c2ccccc2)csc1NC(=O)c1nn(CC)cc1Br,1e-09,i,-4%,i,-0.4%
Cc1cc(C)cc(N2C(=O)CC(N3CCOCC3)C2=O)c1 (stereo not drawn),·,·,?,·,-1.5%
CCC(C)(C(=O)NC1CCCC1)N(Cc1ccco1)C(=O)c1ccccn1 (stereo not drawn),2.1e-08,i,?,i,0.8%
Cc1onc(-c2ccccc2Cl)c1C(=O)Nc1cccc2cccnc12,·,·,?,·,1.5%
COC(=O)c1ccc(C(NC(=O)OCc2ccccc2)/C(=C/[C@@H](C)C(=O)NCc2ccc(OC)c(OC)c2)c2cccnc2)cc1 (stereo partly drawn),·,·,3%,·,-1.0%
O=C(c1ccccc1Oc1nnnn1-c1ccccc1)N1CCOCC1,1.5e-08,i,6%,i,1.0%
O=C(COC(=O)C1CCN(S(=O)(=O)c2cccs2)CC1)c1cc2ccccc2o1,3.2e-08,i,·,i,-1.4%
Cc1c(OCc2nn[nH]n2)ccc2c3c(c(=O)oc12)CCCC3,4.3e-09,i,22%,i,-0.6%
O=C(COC(=O)CCc1c[nH]c(=O)[nH]1)Nc1cccc(Cl)c1,5.8e-09,i,0%,i,1.6%
Cc1cc(C)cc(N2C(=O)C3C4C=CC(C4)C3C2=O)c1 (stereo not drawn),9.4e-09,i,4%,i,-2.8%
O=C(c1cc2nc(-c3ccco3)cc(C(F)(F)F)n2n1)N1CCN(c2ccccc2)CC1,·,·,?,·,5.8%
Cc1ccc(S(=O)(=O)N2CCC(C(=O)Nc3nnc(-c4ccco4)s3)CC2)cc1,2.1e-08,i,-4%,i,2.0%
CC(=O)Nc1nonc1NC(=O)CSc1ccccn1,4.8e-09,i,-2%[11.4 µM],i,-2.5%
CCN(CC)C(=O)CSc1nnc(-c2cccc(OC)c2)o1,1.8e-08,i,3%,i,0.0%
COc1ccc(-c2nc3ncccn3c2Nc2ccc3c(c2)OCCO3)cc1,3.3e-09,i,-21%,i,-0.7%
CC(c1ccccc1)n1cc(C(=O)NCc2cccnc2)nn1 (stereo not drawn),6.6e-09,i,-2%,i,-1.2%

# Nothing new here: an excerpt of the list.
SMILES,A647 autofl,A488 autofl,TSHR ag,Resorufin fluor,AID923
COc1ccc(-c2nc3ncccn3c2Nc2ccc3c(c2)OCCO3)cc1,3.3e-09,i,-21%,i,-0.7%
CC(c1ccccc1)n1cc(C(=O)NCc2cccnc2)nn1 (stereo not drawn),6.6e-09,i,-2%,i,-1.2%

# Screening data deposited in PubChem BioAssay by National Center for Advancing Translational Sciences (NCATS).
